LASV entry inh: inhibitors of Lassa virus binding or cell entry; Lassa virus pseudotype entry inhibition, cell reporter; control for the full effect not named in the record; Potency, µM (doses to about 37.9 µM), inactives show top-dose activity change, negative = inhibition, most hits filed as inhibitors; 300,000 tested, 1.2% active; AID 540256; active means well fitted inhibition curve with a large enough effect; inconclusive means small, poorly fitted or top-dose-only effect, or effect the other way; inactive means flat fitted curve, though single readings scatter; tested in HEK293 cells; note: % is set by controls: 0 for no effect and ±100 for the full control effect; nearly all actives have a fitted effect of over 50% in size; luciferase read-out
MARV entry inh: inhibitors of Marburg virus binding or cell entry | AID 540276 | Potency, µM (titrated, usually from 37.8 µM), for the others: top-dose activity change, negative = inhibition, actives largely listed as inhibitors | Marburg virus pseudotyped entry inhibition, cell reporter; control for the full effect not named in the record; about a third of the inactives were read at about 46 µM | 300,000 tested, 1.8% active; active = well fitted inhibition curve with a large enough effect; inconclusive = small, poorly fitted or top-dose-only effect, or effect the other way; inactive = flat fitted curve, though single readings scatter; tested in HEK293 cells; about a fifth of its hits are not listed in these tables; note: % is set by controls: 0 for no effect and ±100 for the full control effect; luciferase read-out
RE007 growth inh: less growth of the S. pombe RE007 Vpr strain; 360,000 tested, 0.21% active; Potency, µM (doses to about 92.2 µM), inactives show top-dose activity change, negative = less growth; S. pombe RE007 Vpr strain, BacTiter-Glo ATP luminescence, 24 h; control for the full effect not named in the record; AID 651644; active = well fitted falling curve with a large enough effect; inconclusive = small, poorly fitted or top-dose-only effect; inactive = no such curve, though single readings can be large or run the other way;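 note: % is set by controls: 0 for no effect and ±100 for the full control effect; nearly all actives have a fitted effect of over 50% in size; the assay follows cell death caused by Vpr and the record does not say whether a fall means rescue or toxicity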
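Fission yeast strain RE007, carrying one chromosomally integrated HIV-1 vpr copy, was seeded at OD 0.01 in PMG+AL medium with 23 nL pinned compound. After 24 h at 30 °C and 99% humidity, viability was read by BacTiter-Glo luminescence.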
StopGo reporter: lowers the luciferase signal of an FMDV 2A StopGo reporter. human cells with a luciferase reporter of 2A StopGo recoding; control for the full effect not named in the record. 410,000 tested, 1.2% active. Potency, µM (top dose mostly 57.9 µM), inactives show at the highest dose signal change, negative = less light; active = well fitted falling curve with a large enough effect; inconclusive = small, poorly fitted or top-dose-only effect; inactive = no such curve, though single readings can be large or run the other way; tested in HEK293T cells; note: % is set by controls: 0 for no effect and ±100 for the full control effect; nearly all actives have a fitted effect of over 45% in size; luciferase light after 4 h
NS1 function inh: influenza NS1 inhibition | S. cerevisiae slowed by influenza A NS1, growth recovery by OD600 | Potency, µM (top dose mostly 46.1 µM), inactives show at the top dose activity, positive = more growth | 270,000 tested, 0.4% active | AID 2326; note: actives are rising curves; nearly all actives have a fitted effect of over 50% in size
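A cell-based growth assay was used: compounds that relieve NS1-induced slow growth of budding yeast raise OD600. Assay medium was yeast nitrogen base with ammonium sulphate and -URA supplement, pH 6.0, with 2% galactose.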
Cruzain Triton: inhibitors of Trypanosoma cruzi cruzain with detergent; P25779; purified cruzain, Z-FR-AMC fluorescence, 0.01% Triton; Potency, µM, without a hit: max response, negative = inhibition, hits mostly inhibitors; 200,000 tested, 0.43% active; active = well fitted curve in the direction sought with a large enough effect; inconclusive = small, poorly fitted or top-dose-only effect, or another doubt; inactive = no such curve, though single readings can be large; an effect the other way counts as inactive or inconclusive;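 note: plate controls were neutral wells for no effect and buffer without enzyme for full effect; nearly all actives have a fitted effect of over 40% in size; top concentration of the series not given in the record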
Target sequence (P25779 123-467 limits assumed): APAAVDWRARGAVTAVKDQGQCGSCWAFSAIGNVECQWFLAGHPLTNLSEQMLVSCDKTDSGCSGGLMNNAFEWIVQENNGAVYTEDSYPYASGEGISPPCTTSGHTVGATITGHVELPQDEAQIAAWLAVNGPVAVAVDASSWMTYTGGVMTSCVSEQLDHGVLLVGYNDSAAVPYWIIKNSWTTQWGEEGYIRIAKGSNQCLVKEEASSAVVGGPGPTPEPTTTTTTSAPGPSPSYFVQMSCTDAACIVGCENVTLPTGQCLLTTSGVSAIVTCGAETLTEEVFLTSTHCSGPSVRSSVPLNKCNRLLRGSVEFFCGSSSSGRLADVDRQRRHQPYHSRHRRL
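Z-FR-AMC hydrolysis (2 uM substrate) by cruzain (1.5 nM) monitored kinetically at ex 360/em 450 nm after 15 min room-temperature compound exposure; 0.01% Triton X-100, pH 5.5, 5 mM DTT.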
Cruzain inh noDet: cruzain (T. cruzi) inhibition without detergent; Potency, µM, for the others: max response, negative = inhibition, most hits filed as inhibitors; purified cruzain, Z-FR-AMC fluorescence, no detergent; 200,000 tested, 2.3% active; P25779; AID 1476; active = well fitted curve in the direction sought with a large enough effect; inconclusive = small, poorly fitted or top-dose-only effect, or another doubt; inactive = no such curve, though single readings can be large; an effect the other way counts as inactive or inconclusive;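 note: plate controls were enzyme without inhibitor for no effect and buffer without enzyme for full effect; nearly all actives have a fitted effect of over 40% in size; top concentration of the series not given in the record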
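Purified cruzain at 1.5 nM, pre-incubated 15 min with compound at room temperature in 100 mM sodium acetate pH 5.5, 5 mM DTT, 0.00005% Triton X-100. Reaction started with 2 uM Z-FR-AMC; AMC fluorescence increase over 60 s gives rate.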
SARS PLP yeast: SARS-CoV PLP inhibition in yeast; 330,000 tested, 0.19% active; Potency, µM (doses to about 32.9 µM), for inactives: top-dose activity, positive = growth rescue; S. cerevisiae expressing SARS-CoV PLpro, growth rescue; control for the full effect not named in the record; note: 0% is about no effect; nearly all actives have a fitted effect of over 55% in size; growth read by luminescence after 48 h
* = called active by the depositor; ? = inconclusive; nt = not tested or not shown; [ ] = another dose, or the depositor's remark. Unless noted, calls come from the whole dose curve; as a rule, active means well fitted rising curve with a large enough effect; inconclusive means small, poorly fitted or top-dose-only effect; inactive means no such curve, though single readings can be large or run the other way. Potency is the fitted concentration of half-maximal effect. This is a random part of the collection; any-hit rate near 4.7%.

SMILES | LASV entry inh | MARV entry inh | RE007 growth inh | StopGo reporter | NS1 function inh | Cruzain Triton | Cruzain inh noDet | SARS PLP yeast
CC(=O)N/C(=C\c1ccc(Br)s1)C(=O)O | 13%[46.1 µM] | 2%[46.1 µM] | 3% | -4% | nt | nt | nt | 1%
Cc1cc(NC(=O)CCl)nn1C | ? | 7.9µM* | 4% | 35µM* | 6% | nt | nt | 17%
Cc1nc(Cl)sc1C(=O)Nc1cccc(C(F)(F)F)c1 | -30%[46.1 µM] | ? | 17% | -4% | nt | nt | nt | nt
O=C(Nc1cccc(Cl)c1)OCc1cn(-c2ccc(Cl)cc2)nn1 | 1% | 0% | 2% | 20% | 3% | 8.6% | ? | 1%
CCC(=O)Nc1nnc(S(=O)(=O)N2CCCC2)s1 | nt | nt | -1% | -15% | 6% | nt | nt | 1%
CCCCSc1cc(=O)n(-c2ccccc2)nc1C(=O)OCC | 18% | 0% | -14% | -22% | 8% | 0.7% | 4% | -2%
O=C1CN(C(=O)COC(=O)c2ccc(N3CCCCCC3)c([N+](=O)[O-])c2)c2ccccc2N1 | -1% | -21%[46.1 µM] | 5% | -20% | 10µM* | -6.9% | -13% | -4%
Cc1ccnc(N2C3CCC2CC(O)(c2ccccc2)C3)n1 (configuration not stated) | nt | nt | 7% | -7% | 6% | nt | nt | 0%
CC1CCCC(C)N1CCCNC(=O)c1ccc2nc(N3CCOCC3)sc2c1 (configuration not stated) | nt | nt | -8% | -19% | 4% | nt | nt | -4%
CC(C)[C@H](NC(=O)c1ccc(F)cc1)C(=O)OCC(=O)NC(=O)c1cccn1C | nt | nt | 2% | 0% | 5% | -8.1% | -22% | 14%
CCOC(=O)c1cnc2ccc(OC)cc2c1NCc1ccccc1 | 25% | ? | -6% | -7% | -22% | -6.3% | 11% | -19%
Cc1ccccc1NC(=O)Cn1cc(C(=O)c2cccs2)c2ccccc21 | ? | -13%[46.1 µM] | nt | -9% | nt | -8.7% | 25% | nt
COc1cccc(CN2CCc3nc(N4CCN(C)CC4)ncc3C2)c1 | -7%[46.1 µM] | nt | nt | -4% | nt | 0.4% | 1% | nt
Cc1cc2c(n1-c1ccc(C(N)=O)cc1)CC(C)(C)CC2=O | -1% | 8% | -3% | -25% | 15% | -1.7% | 7% | 11%
COC(=O)c1ccc(C23CC4(C2)[C@H](CN(Cc2ccc(-c5ccccc5)cc2)[C@@H]4c2ccccc2)C3c2ccc(Cl)nc2)cc1 (some centres not stated) | nt | nt | -18% | -4% | ? | 3.2% | 16µM* | 0%
CCOC(=O)C1(Cc2cccc(Cl)c2)CCCN(C(=O)c2cn[nH]c2)C1 (configuration not stated) | 11% | -6% | -1% | -26% | 4% | nt | nt | nt
Cc1cc(C(=O)CN2C(=O)NC3(CCCc4sccc43)C2=O)c(C)n1-c1ccc(Cl)cc1 (configuration not stated) | ? | ? | -6% | 7% | 7% | -0.8% | ? | 0%
C=CCOc1cccc(/C=N/NC(=O)CN2CCCCC2)c1 | 19%[46.1 µM] | -4%[46.1 µM] | -5% | 4% | 0% | nt | nt | -2%
CCOc1ccccc1NC(=O)Cn1c(=O)n(Cc2ccccc2)c(=O)c2c(C)c(C(=O)N(C)C)sc21 | -29%[46.1 µM] | nt | nt | -19% | nt | -0.5% | ? | nt
O=C(CN1CCN(c2ccccn2)CC1)Nc1cccc(S(=O)(=O)N2CCCC2)c1 | nt | nt | -10% | -5% | 2% | nt | nt | -10%
COC(=O)/C=C1\SC(=Nc2ccccc2)NC1=O | -1% | -1% | 13% | ? | 3% | -2.9% | 10% | 1%
COc1cccc(C2=NOC(C(=O)Nc3cccc(C(C)=O)c3)C2)c1OC (configuration not stated) | ? | ? | 7% | 10% | -8% | -1.8% | -8% | -6%
O=C(NCCCN1CCCCCC1)C1CC(=O)N(CCc2ccccc2)C1 (configuration not stated) | 5% | 0% | 7% | -10% | -9% | 0.3% | -8% | -5%
COc1ccc(C(=O)Nc2ccc(S(=O)(=O)Nc3onc(C)c3C)cc2)cc1OC | -2% | 20% | -2% | -7% | -25% | -1.5% | -2% | -1%
Cc1ccccc1S(=O)Cc1ccc(C(=O)N2CCN(C(=O)c3ccco3)CC2)o1 (configuration not stated) | nt | nt | -9% | -8% | 4% | nt | nt | 3%

(next part)
SMILES | LASV entry inh | MARV entry inh | RE007 growth inh | StopGo reporter | NS1 function inh | Cruzain Triton | Cruzain inh noDet | SARS PLP yeast
CCn1c(CNC(=O)c2ccco2)nnc1SCC(=O)c1ccccc1 | nt | nt | 2% | 6% | 2% | nt | nt | 0%
O=C(Nc1cccc2ccccc12)N1CCN(c2ncccn2)CC1 | nt | nt | -13% | 1% | 4% | nt | nt | -2%
O=c1cc(C(Cl)(Cl)Cl)oc2c1ccc1ccccc12 | ? | 2.1µM* | 6% | 14µM* | -12% | 3.5% | -19% | 0%
CCOC(=O)c1cc(C#N)c(N2CCOCC2)nc1-c1ccccc1 | -21% | 0%[46.1 µM] | 6% | ? | nt | nt | nt | 0%
COc1ccc(CCNC(=O)C(C)c2ccc([N+](=O)[O-])cc2)cc1 (configuration not stated) | -12%[46.1 µM] | ? | 6% | -22% | nt | nt | nt | 0%
c1ccc(OCCOCCN2CCN(C(c3ccccc3)c3ccccc3)CC2)cc1 | ? | ? | -2% | -20% | -30% | -3.2% | 9% | -14%
Nc1nc(CSC(=S)N2CCCCC2)nc(Nc2ccccc2)n1 | ? | ? | 17% | 57%[activator] | nt | nt | nt | -2%
COc1ccc(OC)c(C(=O)NC(CC(N)=O)c2ccc(NCc3ccccn3)c([N+](=O)[O-])c2)c1 (configuration not stated) | nt | nt | -5% | 13% | 3% | nt | nt | -9%
COC(=O)c1ccn(-c2nc(-c3ccc(Cl)cc3)cc(C(F)(F)F)n2)n1 | -1%[46.1 µM] | 5%[46.1 µM] | nt | ? | nt | -4.2% | 0% | nt
c1ccc(-c2csc(-c3ccncc3)n2)cc1 | 26% | -20%[46.1 µM] | -4% | 32%[activator] | -11% | nt | nt | -3%
CC(C)(C)NC(=O)CN(C(=O)Cn1nnc(-c2ccc(Cl)cc2)n1)C1CCN(Cc2ccccc2)CC1 | ? | ? | -7% | -13% | -1% | -1.8% | 15% | 14%
CCCSC1=NC2(CCN(C(=O)NC3CCCCC3)CC2)N=C1c1ccc(OC)cc1 | -28%[46.1 µM] | nt | nt | -19% | nt | -5.3% | 5% | nt
OCC(CO)(CO)NC(=S)Nc1cc(Cl)cc(Cl)c1 | nt | nt | 3% | -4% | 0% | nt | nt | -5%
COc1cccc(C(=O)NNC(=O)C(=O)Nc2ccc(C)c(Cl)c2)c1 | -13%[46.1 µM] | -2%[46.1 µM] | -25% | 0% | -42% | nt | nt | 0%
CC(Nc1oc(-c2ccc(COc3ccccc3)o2)nc1C#N)c1ccccc1 (configuration not stated) | ? | -1%[46.1 µM] | nt | -13% | nt | -2.7% | 20µM* | nt
CCCCNC(=O)CNC(=S)N(Cc1cc(OC)c(OC)c(OC)c1)C1CCCC1 | -4% | 2% | 3% | 6% | -8% | -4.2% | ? | -17%
COc1ccc(C(O)c2nc3ccccc3s2)cc1 (configuration not stated) | nt | 0% | nt | nt | -8% | -1.4% | 18% | -1%
CC(C)(C)c1ccc(C(=O)Nc2ccc3nc(SCC(=O)N4CCCC4)sc3c2)cc1 | ? | ? | nt | 10µM* | nt | -9.0% | 12% | nt
O=C(Nc1ccc(F)cc1)Nc1nnc(COc2ccccc2F)s1 | ? | ? | 15% | ? | 1% | nt | nt | 1%
C/C(=N\Nc1ccc([N+](=O)[O-])cc1)c1ccc2c(c1)OCO2 | -1%[46.1 µM] | ? | -9% | 16% | nt | nt | nt | 2%
C=C(C)c1ccc(C(C)(C)NC(=O)NCc2ccco2)cc1 | 1% | ? | 3% | 0% | ? | 3.5% | 10% | -4%
O=C(CCNC(=O)c1ccco1)Nc1ccc(OC(F)F)cc1 | 26%[46.1 µM] | ? | 7% | 6% | 1% | nt | nt | 8%
CC(SCc1nc2sc3c(c2c(=O)[nH]1)CCCC3)C(=O)Nc1ccccn1 (configuration not stated) | 29% | -12% | -11% | -1% | nt | nt | nt | 3%
CCCCc1ccc(NC(=O)c2ccc3c(c2)CCN3S(=O)(=O)c2ccccc2)cc1 | ? | ? | nt | -12% | nt | -1.8% | ? | nt
CC(=O)c1sc(NC(=O)COc2ccc(Cl)cc2C)nc1C | -1%[46.1 µM] | ? | 0% | 7% | -3% | nt | nt | 0%
O=C(CSc1nnc2n1CCCN2)c1ccc(Cl)cc1 | 2% | 19% | 5% | 1% | 9% | -2.7% | -20% | -4%
C=CCNC(NC(=O)c1ccccc1)(C(=O)OCC)C(F)(F)F (configuration not stated) | 20% | 14% | -2% | 10% | 2% | 0.7% | -2% | 4%

Compound activity: PubChem BioAssay, National Center for Advancing Translational Sciences (NCATS)
